SARS PLpro yeast = qHTS of Yeast-based Assay for SARS-CoV PLP | S. cerevisiae expressing SARS-CoV PLpro, growth rescue; control for the full effect not named in the record | Potency, µM (top dose mostly 32.9 µM), for inactives: top-dose activity, positive = growth rescue | hit rate 0.19% among 330,000; active means well fitted rising curve with a large enough effect; inconclusive means small, poorly fitted or top-dose-only effect; inactive means no such curve, though single readings can be large or run the other way; further: 0% is about no effect; nearly all actives have a fitted effect of over 55% in size; growth read by luminescence after 48 h
Cruzain inh noDet = qHTS Assay for Promiscuous and Specific Inhibitors of Cruzain (without detergent); purified cruzain, Z-FR-AMC fluorescence, no detergent; Potency, µM, inactives show max response, negative = inhibition, usual class: inhibitors; hit rate 2.3% among 200,000;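 further: plate controls were enzyme without inhibitor for no effect and buffer without enzyme for full effect; nearly all actives have a fitted effect of over 40% in size; top concentration of the series not given in the record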
Target sequence (P25779 123-467 limits assumed): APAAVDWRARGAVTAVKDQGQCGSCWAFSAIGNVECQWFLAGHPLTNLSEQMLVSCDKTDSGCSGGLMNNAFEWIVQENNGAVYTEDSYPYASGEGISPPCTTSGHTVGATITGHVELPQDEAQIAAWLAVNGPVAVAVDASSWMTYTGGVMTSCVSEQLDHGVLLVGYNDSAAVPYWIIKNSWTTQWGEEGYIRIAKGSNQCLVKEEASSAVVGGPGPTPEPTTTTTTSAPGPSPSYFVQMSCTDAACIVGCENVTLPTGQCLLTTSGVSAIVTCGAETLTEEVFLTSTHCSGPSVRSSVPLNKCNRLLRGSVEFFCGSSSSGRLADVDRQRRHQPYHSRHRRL
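Purified cruzain at 1.5 nM, pre-incubated 15 min with compound at room temperature in 100 mM sodium acetate pH 5.5, 5 mM DTT, 0.00005% Triton X-100. Reaction started with 2 uM Z-FR-AMC; AMC fluorescence increase over 60 s gives rate.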
StopGo reporter = High Throughput Screening for Foot and Mouth Disease Virus Antivirals; human cells with a luciferase reporter of 2A StopGo recoding; control for the full effect not named in the record; hit rate 1.2% among 410,000; AID 1159524, 2015; Potency, µM (top dose mostly 57.9 µM), for inactives: at the highest dose signal change, negative = less light; active = well fitted falling curve with a large enough effect; inconclusive = small, poorly fitted or top-dose-only effect; inactive = no such curve, though single readings can be large or run the other way; tested in HEK293T cells; further: on the % scale 0 is the no-effect control and ±100 the full control effect; nearly all actives have a fitted effect of over 45% in size; luciferase light after 4 h
LASV entry inh = qHTS for Inhibitors of binding or entry into cells for Lassa Virus; Lassa virus pseudotype entry inhibition, cell reporter; control for the full effect not named in the record; Potency, µM (top dose mostly 37.9 µM), inactives show at the top dose activity change, negative = inhibition, usual class: inhibitors; hit rate 1.2% among 300,000; AID 540256, 2011; active means well fitted inhibition curve with a large enough effect; inconclusive means small, poorly fitted or top-dose-only effect, or effect the other way; inactive means flat fitted curve, though single readings scatter; tested in HEK293 cells; further: on the % scale 0 is the no-effect control and ±100 the full control effect; nearly all actives have a fitted effect of over 50% in size; luciferase read-out
Cruzain Triton = qHTS Assay for Promiscuous and Specific Inhibitors of Cruzain (with detergent). purified cruzain, Z-FR-AMC fluorescence, 0.01% Triton. Potency, µM, for inactives: max response, negative = inhibition, usual class: inhibitors. hit rate 0.43% among 200,000. AID 1478, 2009;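 further: plate controls were neutral wells for no effect and buffer without enzyme for full effect; nearly all actives have a fitted effect of over 40% in size; top concentration of the series not given in the record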
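Compounds were screened in titration against cruzain (1.5 nM) with 0.01% Triton X-100 to counter colloidal aggregation. Activity was the AMC fluorescence increase over 60 s after adding 2 uM Z-FR-AMC at pH 5.5.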
MARV entry inh = qHTS for inhibitors of binding or entry into cells for Marburg Virus; Marburg virus pseudotyped entry inhibition, cell reporter; control for the full effect not named in the record; about a third of the inactives were read at about 46 µM; Potency, µM (titrated, usually from 37.8 µM), for inactives: at the top dose activity change, negative = inhibition, usual class: inhibitors; hit rate 1.8% among 300,000; AID 540276, 2011; active = well fitted inhibition curve with a large enough effect; inconclusive = small, poorly fitted or top-dose-only effect, or effect the other way; inactive = flat fitted curve, though single readings scatter; tested in HEK293 cells; about a fifth of its hits are not listed in these tables; further: on the % scale 0 is the no-effect control and ±100 the full control effect; luciferase read-out
RE007 growth inh = qHTS Assay for Inhibitors of the HIV-1 protein Vpr. AID 651644, 2012. S. pombe RE007 Vpr strain, BacTiter-Glo ATP luminescence, 24 h; control for the full effect not named in the record. hit rate 0.21% among 360,000. Potency, µM (highest dose often 92.2 µM), without a hit: top-dose activity change, negative = less growth; active = well fitted falling curve with a large enough effect; inconclusive = small, poorly fitted or top-dose-only effect; inactive = no such curve, though single readings can be large or run the other way;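 further: on the % scale 0 is the no-effect control and ±100 the full control effect; nearly all actives have a fitted effect of over 50% in size; the assay follows cell death caused by Vpr and the record does not say whether a fall means rescue or toxicity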
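Fission yeast strain RE007, carrying one chromosomally integrated HIV-1 vpr copy, was seeded at OD 0.01 in PMG+AL medium with 23 nL pinned compound. After 24 h at 30 °C and 99% humidity, viability was read by BacTiter-Glo luminescence.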
NS1 inh = qHTS Assay for Inhibitors of Influenza NS1 Protein Function; hit rate 0.4% among 270,000; S. cerevisiae slowed by influenza A NS1, growth recovery by OD600; Potency, µM (highest dose often 46.1 µM), without a hit: at the highest dose activity, positive = more growth; active means well fitted rising curve with a large enough effect; inconclusive means small, poorly fitted or top-dose-only effect; inactive means no such curve, though single readings can be large or run the other way; further: nearly all actives have a fitted effect of over 50% in size
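In this qHTS, NS1 from influenza A is expressed in budding yeast, where it slows growth. Cells are switched from glucose to 2% galactose medium (pH 6.0, -URA), treated with compound, and growth recovery is read at OD600.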
Numbers without * were called inactive; ? = inconclusive; . = not tested or not shown; & = joins results of further samples; [ ] = another dose, or the depositor's remark. Unless noted, the call rests on the fitted dose curve; in most records, active means well fitted curve in the direction sought with a large enough effect; inconclusive means small, poorly fitted or top-dose-only effect, or another doubt; inactive means no such curve, though single readings can be large; an effect the other way counts as inactive or inconclusive. Potency means the concentration at half of the fitted maximal effect. No enrichment for hits; any-hit rate near 4.8%.

structure | SARS PLpro yeast | Cruzain inh noDet | StopGo reporter | LASV entry inh | Cruzain Triton | MARV entry inh | RE007 growth inh | NS1 inh
O=C(/C=C/c1ccc(Cl)cc1)N1CCN(c2ccc(Cl)cc2[N+](=O)[O-])CC1 | -24% | -28% | -3% | 3% | 1.7% | 4% | -10% | -57%
COc1ccc(/C=N/NS(=O)(=O)c2ccccc2)cc1OS(=O)(=O)c1ccc(C)cc1 | 0% | -22% | 33%[activator] | -16% | -2.8% | -20%[46.1 µM] | 14% | 5%
COc1ccc(-c2csc(NC(=O)CSc3nc(C)nc4sc(C(=O)O)c(C)c34)n2)cc1 | 1% | . | -24% | -14% | . | -22% | -9% | 3%
Oc1ccc(/C=N/Nc2ncnc3nc[nH]c23)cc1 | 1% | . | -23% | . | . | . | 4% | 12%
CS(=O)(=O)N(CC(=O)N1CCC(C(N)=O)CC1)c1cc(C(F)(F)F)ccc1Cl | 0% | . | 4% | 3% | . | 2%[46.1 µM] | 3% | 3%
Cn1c(-c2ccc(Br)cc2)cnc1NCc1cccnc1 | 2% | -10% | 0% | 7% | 4.6% | -24%[46.1 µM] | -4% | 7%
COC(=O)Cc1c(C)c2c(O)cc(C)cc2oc1=O | . | 7% | 52%[activator] | -1% | -1.9% | -3% | -2% | -10%
COc1ccccc1S(=O)(=O)Cc1ccc(C(=O)N2CCN(c3ccccc3)CC2)o1 | 4% | ? | ? | 5% | 1.5% | -19% | -13% | -46%
Cc1cc(C)c(S(C)(=O)=O)c(Sc2ccc(Cl)cc2)n1 | 0% | 1% | -2% | 6% | -1.3% | ? | -21% | -19%
O=C(COC(=O)c1ccccc1Br)NCc1ccccc1 | -7% | -3% | 18% | ? | 0.7% | 5% | -17% | 5%
CCOC(=O)c1cc(-c2ccncc2)nc2c1c(C)nn2C | -15% | ? | ? | -17% | -2.6% | ? | -7% | -70%
CCn1cc(C(=O)N(C)CC(OC)OC)c(=O)c2cc(S(=O)(=O)N3CCOCC3)ccc21 | -4% | . | 5% | . | . | . | 3% | 6%
COc1ccc(NC(=O)CCS(=O)(=O)c2nc(-c3ccc4c(c3)OCO4)cc(C(F)(F)F)n2)cc1 | . | -26% | -6% | -32%[46.1 µM] | -5.4% | -17%[46.1 µM] | . | .
Cc1nn2c(=O)cc(COC(=O)c3ccccc3NC(=O)COc3ccccc3C)nc2s1 | . | -1% | 7% | 12%[46.1 µM] | 0.3% | . | . | .
CCOCCCNC(=O)C(c1ccccc1)N(Cc1cccs1)C(=O)c1ccc(NC(C)=O)cc1 (stereo not given) | . | ? | -20% | -4%[46.1 µM] | -2.3% | ? | . | .
CSc1ccc(CN2CCN(Cc3ccccc3)C(CCO)C2)cc1 (stereo not given) | 1% | . | -13% | -4%[46.1 µM] | . | ? | 1% | 0%
O=C(O)c1ccccc1CSc1nc2ccccc2o1 | -11% | -6% | 23% | -19% | 0.0% | 2% | -14% | -73%
CCc1ccc(C2Sc3ccccc3NC3=C2C(=O)c2ccccc23)cc1 (stereo not given) | . | ? | 54%[activator] | ? | -8.0% | ? | . | .
CC(C)Cn1c(N)c(C(=O)COC(=O)C2CC(=O)N(c3ccc4c(c3)OCCO4)C2)c(=O)n(C)c1=O (stereo not given) | 5% | . | -15% | 10% | . | 2% | 4% | .
CC(=O)c1ccc(NS(=O)(=O)c2ccc3[nH]c4c(c3c2)CCCCCC4)cc1 | . | ? | 52%[activator] | ? | -12% | . | . | .
CCOc1ccc(CC(=O)NNC(=S)NCCc2ccccc2)cc1 | 0% | . | 3% | . | . | . | 6% | 1%
Cc1c(/C=C/C(=O)c2ccc(O)cc2)cnn1C | 3% | -7% | 11% | 1% | 3.4% | -15% | -25% | 0%
CCC1SC2=NC(C)=C(C(=O)OC)C(c3cccs3)N2C1=O (stereo not given) | 23% | 2% | -14% | 15% | -5.0% | 14%[46.1 µM] | 10% | 5%
C[N+](C)(C)CCCCCC(=O)/C=N/O | 3% | -8% | 8% | -13% | 5.1% | 8% | 4% | 12%
COc1ccc(NC(=O)Cn2cnc3c(oc4nc5c(cc43)COC(C)(C)C5)c2=O)cc1 | 0% | . | 12% | 16% | . | -9% | 6% | -2%

Ordered by molecular weight (lowest first): part of the list above
structure | SARS PLpro yeast | Cruzain inh noDet | StopGo reporter | LASV entry inh | Cruzain Triton | MARV entry inh | RE007 growth inh | NS1 inh
COC(=O)Cc1c(C)c2c(O)cc(C)cc2oc1=O | . | 7% | 52%[activator] | -1% | -1.9% | -3% | -2% | -10%
CC(=O)c1ccc(NS(=O)(=O)c2ccc3[nH]c4c(c3c2)CCCCCC4)cc1 | . | ? | 52%[activator] | ? | -12% | . | . | .
COc1ccc(/C=N/NS(=O)(=O)c2ccccc2)cc1OS(=O)(=O)c1ccc(C)cc1 | 0% | -22% | 33%[activator] | -16% | -2.8% | -20%[46.1 µM] | 14% | 5%
CC(C)Cn1c(N)c(C(=O)COC(=O)C2CC(=O)N(c3ccc4c(c3)OCCO4)C2)c(=O)n(C)c1=O (stereo not given) | 5% | . | -15% | 10% | . | 2% | 4% | .

The list goes on:
structure | SARS PLpro yeast | Cruzain inh noDet | StopGo reporter | LASV entry inh | Cruzain Triton | MARV entry inh | RE007 growth inh | NS1 inh
COc1cccc(N(CC(=O)NCCSc2ccccn2)S(C)(=O)=O)c1 | -2% | 3% | -21% | -3% | -4.0% | -3% | 0% | -1%
COC(=O)C1=C(O)/C(=C\c2ccc(OCC(=O)Nc3ccccc3)cc2)N=C1C | ? | . | -18% | . | . | . | 2% | -2%
Cc1c(C(=O)O)sc(S(=O)(=O)N2CCN(C(=O)CCc3ccccc3)CC2)c1C(=O)O | -5% | . | -16% | 26% | . | 3% | 13% | .
COc1ccc(C2CC(c3ccccc3)=NN2c2ccc(S(N)(=O)=O)cc2)cc1OC (stereo not given) | 1% | . | 0% | 11µM* | . | ? | 5% | 14%
O=C(CSc1nnc(-c2ccc(S(=O)(=O)N3CCCC3)cc2)n1CC1CCCO1)NC1CC1 (stereo not given) | 1% | 1% | -10% | ? | 3.9% | 0%&15% | 9% | -14%
Nc1c2c(nc3sc4c(c13)CCCCC4)CCCC2 | -64% | ? | -5% | ? | -22% | ? | -21% | -47%
CC(=O)c1ccc(N2Cc3ccccc3/C2=N\C(=O)Nc2ccccc2)cc1 | 21% | 24% | 13% | 0% | -6.0% | 14% | -5% | 13%
CN(Cc1ccccc1)C(=O)c1ccccc1NC(=O)C1CC1 | 0% | . | -2% | 0% | . | 3%[46.1 µM] | 16% | 0%
CC1CCCC(C)N1C(=O)CSc1nc(N)cc(N)n1 (stereo not given) | 0% | . | -5% | 25% | . | 20%[46.1 µM] | 9% | 8%
COc1ccc2nc(NC(=O)C(NS(=O)(=O)c3cccc4nsnc34)C(C)C)sc2c1 (stereo not given) | 12% | 3% | -9% | . | -3.4% | -2% | 3% | 20%
C/C(Cc1ccccc1)=N\NC(=O)c1ccc(F)cc1 | -4% | 1% | 9% | ? | 5.8% | 4% | -3% | 3%
O=C(c1ccc2ccccc2n1)N1CCN(S(=O)(=O)c2ccc(Cl)cc2)CC1 | 1% | . | ? | -18% | . | -23% | -8% | .
Cc1ccc(N2CN(Cc3cccnc3)CNC2=S)c(C)c1 | -14% | 1% | 0% | ? | 0.1% | 2% | -11% | 6%
O=C1CC(C(=O)Nc2ccc(Cl)c(Cl)c2)S/C(=N\N=C\c2ccco2)N1 (stereo not given) | -3% | . | -14% | 13% | . | ? | 8% | 7%
CCn1cc(C(=O)N2CCCC2)c(=O)c2cc(S(=O)(=O)N(C)C)ccc21 | -2% | -9% | 2% | . | -4.2% | . | -8% | -8%
O=Cc1cccn1-c1ncc(Br)cn1 | 0% | . | -2% | -4% | . | 2% | 5% | .
CC(=O)OC1CC(C)(C)N(OC(=O)c2ccc(N)cc2)C(C)(C)C1 | 1% | -6% | -11% | 18% | 0.3% | 9% | 14% | -1%
O=C(CN(c1cccc(C(F)(F)F)c1)S(=O)(=O)c1ccc(Cl)c([N+](=O)[O-])c1)NCc1ccccc1 | -4% | 8% | -19% | ? | -7.0% | 23µM* | -23% | -15%
CCOc1ccccc1NC(=O)Cn1c(=O)n(-c2ccc(OC)cc2OC)c(=O)c2c(C)c(C(=O)N(CC)CC)sc21 | -4% | . | -13% | 2% | . | -24%[46.1 µM] | 11% | .
Cc1nc2ccc(S(=O)(=O)N(C)CC(=O)NCCc3ccccc3)cc2s1 | 1% | . | -22% | . | . | . | -7% | 5%
CCOC(=O)c1[nH]c(C)c(CCC(=O)OC)c1C | -2% | 2% | -15% | 16% | 5.0% | 24% | -1% | -6%
CCCCC1CCC(C(=O)N2CC(=O)Nc3ccc(Cl)cc3C2c2ccc(F)cc2)CC1 (stereo not given) | . | -29% | -13% | -23%[46.1 µM] | -2.7% | ? | . | .
CCn1c(=O)c(C(=O)CN2CCOCC2)c(N)n(Cc2ccccc2)c1=O | 2% | -3% | -3% | 1% | 2.7% | -2% | 1% | -2%
COc1cccc(C(=O)Nc2nnc(S(=O)(=O)N3CCCCC3)s2)c1 | ? | . | -23% | . | . | . | -2% | -7%
COc1ccccc1C1CCN(C(=O)c2cccs2)CC1 | -2% | . | 0% | 0% | . | -7% | 6% | -41%
COc1ccc(-n2ncc3c2ncn2nc(-c4ccc(Cl)cc4Cl)nc32)cc1 | . | -3% | 16% | 9%[46.1 µM] | -0.8% | 10%[46.1 µM] | . | .
